Assay outcomes deposited in PubChem BioAssay by several laboratories.
Bead autofluor – flagged as autofluorescent in microsphere protease counterscreen; compound autofluorescence counterscreen, microsphere flow cytometry; hits give high values; hit rate 3.1% among 360,000; fluorescence intensity (no concentration beside the values); AID 624483;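 active means at least 3 SD above the mean of all compounds, about 16000 in these data; inconclusive means too few beads counted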;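 further: 100 nL of 1 mM stock went into each well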
Mtb hypoxia inh – inhibitors of hypoxia-regulated fluorescent reporter in Mycobacterium tuberculosis; M. tuberculosis hypoxia-regulated fluorescent reporter, fluorescence; hit rate 0.1% among 300,000; fluorescence inhibition, % (concentration not given with the values);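 active means 35 to 45% if threefold the growth effect, above 45% if 1.5-fold the growth effect; inactive means the rest, general growth blockers included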;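 further: wells of about 50 µL received 100 nL stock; 0% = vehicle wells and 100% = reference inhibitor wells; whole bacteria with a GFP reporter of the hypoxia response; strong numbers were not always called active; many hits fall short of the cut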
PrP 5UTR inh – inhibition of PrP 5' UTR reporter expression. cell-based PrP 5' UTR mRNA reporter, plate reader. AID 488862. hit rate 0.35% among 340,000. inhibition, % (concentration not given with the values);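 active means every replicate at 50% or more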;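 further: 0 = median of the neutral control wells; tested in H4 reporter cells; numbers are from one replicate; inactives centre near -14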
Sa RN4220 lethal – kills Staphylococcus aureus RN4220; S. aureus RN4220 growth, OD600, 16 h; inhibition, % (no concentration beside the values); hit rate 0.33% among 330,000; AID 1259311;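 active means z-score of -3 or lower and OD600 up to 0.18 on both plates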;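 further: plate controls were untreated cells for no effect and reference antibiotic for full effect; stock transfer was 100 nL into about 80 µL; one replicate is shown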
BJeLR viability – kills HRASV12-expressing BJeLR cells; BJeLR (HRASV12) viability, CellTiter-Glo ATP luminescence, 48 h; reference of the scale not given here; inhibition, % (no concentration beside the values); hit rate 0.17% among 300,000; AID 1554;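 active means replicate mean above 50%; inconclusive means above 50% but judged a plate artefact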;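 further: 50 nL library stock added to about 25 µL; numbers are from one replicate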
ugtP null kill – kills S. aureus RN4220 lacking UgtP | S. aureus RN4220 ugtP deletion, OD600 growth, 16 h; some inactives read as strong as hits | growth inhibition, % (concentration not given with the values) | hit rate 0.54% among 330,000;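 active means z-score under -3 and OD600 up to 0.15 on both plates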;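 further: plate controls were untreated wells for no effect and antibiotic for full effect; wells of about 80 µL received 100 nL stock; the first replicate is given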
Mtb hypoxia inh growth – second read-out of Mtb hypoxia inh, no call of its own (marks repeat the call); growth inhibition, %; measured here: M. tuberculosis growth (absorbance);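 0% = vehicle and 100% = reference antibiotic; read after six days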
Active calls of the source: *; ? = inconclusive; . = not tested or not shown.

SMILES	Bead autofluor	Mtb hypoxia inh	Mtb hypoxia inh growth	PrP 5UTR inh	Sa RN4220 lethal	BJeLR viability	ugtP null kill
O=C(OCc1ccc(-c2ccccc2)cc1)c1cccc(O)c1	5842	-5	1	-11	29	-18	100*
COc1ccc(/C=C2/SC(=S)N(n3c(C)ccc3C)C2=O)cc1	.	.	.	-17	0.4	-2	-1
Cc1oc(-c2ccccc2)nc1C(=O)OCC(=O)NCc1ccc(Cl)cc1	9151	-1	0	-17	1.5	.	-3
Cc1nn(C)c(C(=O)NCc2ccc(Cl)cc2)c1Cl	2211	15	5	-15	7.1	7	3
Cc1nn(C)cc1C(C(=O)NC1CCCCC1)N(Cc1ccccc1Cl)C(=O)c1cnccn1 (stereo not given)	3911	5	8	-33	1.9	0	4
COc1ccc(C(=O)C2CCCN(Cc3cccn3-c3nccs3)C2)cc1OC (stereo not given)	3475	-1	1	8	3.5	5	11
Cc1cc2c(SCC(=O)NC3CCCCC3)ncnc2s1	3827	8	9	-25	-2.8	3	-4
COc1ccc(C(=O)N2CCN(Cc3ccccn3)CC2)cc1	4161	-10	9	-23	1.3	-1	-3
CC(C)N(Cc1ccccc1)C(=O)CN1C(=O)COc2ccc(S(=O)(=O)NC3CCCC3)cc21	6022	3	-4	-10	0.2	3	3
Cc1cc(C(=O)Nc2ccc(F)cc2F)on1	3136	7	4	-11	-2.0	2	13
N#Cc1ccsc1NC(=O)CSc1ncnc2ccccc12	2204	.	.	-5	6.6	10	6
Cc1nn(-c2ccccc2)c(Cl)c1/C=N/Nc1ccc(S(=O)(=O)Nc2ccccc2C(=O)O)cc1[N+](=O)[O-]	15380	.	.	-20	.	17	.
COc1ccc(CNC(=O)c2nn(C)c3c2CS(=O)(=O)c2ccccc2-3)cc1	.	3	-3	-15	-6.0	6	-1
NC(=O)c1cc(Cl)ccc1OCC(=O)NC1CC1	3836	-2	-2	-24	-1.4	.	-3
COc1ccccc1Nc1nc2cc(C)ccc2cc1C#N	4162	16	5	-59	2.9	-6	3
CCOC(=O)c1c(NC(=S)Nc2ccccc2)sc2c1CCN(CC)C2	9132	-1	-2	-21	-14	9	-5
CCCOc1ccc(C(=O)Nc2ccc(N(C)C)cc2)cc1	5806	-2	-3	-72	3.7	5	7
CC(=O)OC1OCCOC1NC(=S)Nc1cccc(C(F)(F)F)c1 (stereo not given)	5094	8	12	-11	5.6	-4	-1
CC(=O)NC12CC3CC(C1)CC(C(=O)N(C)CC(=O)Nc1ccccc1Cl)(C3)C2	4573	-3	-6	-7	2.3	-4	8
CC(Nc1nc(-c2ccc(F)cc2)cs1)c1nc2cc(C(F)(F)F)ccc2n1CCOCCO (stereo not given)	4037	7	10	-21	-2.3	-8	-3
COCC(=O)N1CCC(Oc2ccc(C(=O)NC(C)c3nccs3)cc2)CC1 (stereo not given)	6118	11	7	-8	2.7	3	1
Cc1ccc(N(C)C(=O)N2CCN(S(=O)(=O)c3c(C)cc(C)cc3C)CC2)cc1	8927	6	5	-14	0.1	-2	-5
CCC1(c2ccccc2)NC(=O)N(CC(=O)NCc2ccc(C)cc2)C1=O (stereo not given)	3729	10	-5	-11	0.7	8	17
COC(=O)c1cn(CC(=O)N2CCCCC2C)c2ccccc12 (stereo not given)	2478	1	7	-2	8.7	5	1
COC(=O)C1CC1C(NC(=O)c1cc(C)on1)c1ccccc1 (stereo not given)	.	8	7	.	4.6	.	0
O=C(Cn1c(CC(=O)N2CCCC2)nc2ccccc21)NCc1ccccc1	24078*	3	6	-7	2.9	1	3
CS(=O)(=O)c1ccc(C(=O)OCC(=O)NNC(=O)COc2ccc(Cl)cc2)cc1	?	-1	0	-17	2.0	3	1
Cc1cccc2[nH]c3c(N4CC=C(c5ccc(F)cc5)CC4)ncnc3c12	4716	20	8	.	73	-5	89*
Cc1ccc(C(=O)Nc2nc(-c3ccc([N+](=O)[O-])cc3)cs2)o1	2121	-4	-3	-12	-0.7	-5	17
COc1ccc(OC)c(NC(=O)CNC(=O)Cn2cnc3sc(C)cc3c2=O)c1	5443	-2	6	1	0.7	7	1
COc1ccc(C(C)=NNC(=O)CNC(=O)c2cccnc2)cc1OC	.	1	-8	.	-0.1	.	4
Clc1cccc(Cl)c1CO/N=C/c1c(-c2ccccc2)nc2n1CCS2	23470*	.	.	4	.	-2	.
COCCCNc1nc2c(c(=O)n(Cc3ccc(OC)cc3)c(=O)n2C)n1C	3181	-2	-7	0	1.7	-10	6
CC(OC(=O)c1ccc([N+](=O)[O-])s1)C(=O)Nc1ncc(Cl)cc1Cl (stereo not given)	2221	4	-5	-2	8.0	-3	4
O=C(CSc1nnc(CNc2ccc(F)cc2)n1Cc1ccccc1)NCc1ccco1	8478	11	9	-11	0.7	-13	-1
CC(=O)c1ccc(OCC(=O)N(CCC2=CCCCC2)c2c(N)n(Cc3ccccc3)c(=O)[nH]c2=O)cc1	6932	-3	2	-5	1.2	-9	0

Single records, as listed above. Values in the order: Bead autofluor	Mtb hypoxia inh	Mtb hypoxia inh growth	PrP 5UTR inh	Sa RN4220 lethal	BJeLR viability	ugtP null kill
Cc1cccc2[nH]c3c(N4CC=C(c5ccc(F)cc5)CC4)ncnc3c12 is listed as 4716	20	8	.	73	-5	89*
Cc1ccc(C(=O)Nc2nc(-c3ccc([N+](=O)[O-])cc3)cs2)o1 is listed as 2121	-4	-3	-12	-0.7	-5	17
CC(OC(=O)c1ccc([N+](=O)[O-])s1)C(=O)Nc1ncc(Cl)cc1Cl (stereo not given) is listed as 2221	4	-5	-2	8.0	-3	4
CS(=O)(=O)c1ccc(C(=O)OCC(=O)NNC(=O)COc2ccc(Cl)cc2)cc1 is listed as ?	-1	0	-17	2.0	3	1
Clc1cccc(Cl)c1CO/N=C/c1c(-c2ccccc2)nc2n1CCS2 is listed as 23470*	.	.	4	.	-2	.

The list goes on.
SMILES	Bead autofluor	Mtb hypoxia inh	Mtb hypoxia inh growth	PrP 5UTR inh	Sa RN4220 lethal	BJeLR viability	ugtP null kill
CCc1nnc(NC(=O)CSc2ncc(-c3ccccc3)n2C)s1	3852	6	16	-26	3.5	4	0
COc1ccc(C2/C(=C(/O)c3ccc4c(c3)CC(C)O4)C(=O)C(=O)N2CCCn2ccnc2)cc1 (stereo not given)	5084	3	-2	-9	2.2	0	9
Brc1ccc(-c2nc(N/N=C/c3cccnc3)c3ccccc3n2)cc1	3227	.	.	-66	.	9	.
CC(=O)Nc1ccc(NS(=O)(=O)c2ccc3c(c2)n(C)c(=O)n3C)cc1	3417	3	4	15	1.3	-4	4
CCOC(=O)c1ccc(NC(=S)Nc2ccccn2)cc1	2794	.	.	-38	5.7	5	4
Cc1c(C)c2cc(Cl)c(OCC(=O)NC3CC(C)(C)NC(C)(C)C3)cc2oc1=O	4789	2	2	-6	-1.5	11	0
Cc1c(C(=O)N2CCN(c3ccccn3)CC2)sc2ncnc(N3CCOCC3)c12	7851	17	9	-9	5.0	-1	5
CN(CC(=O)N(C)CC(=O)Nc1c(Cl)cccc1Cl)Cc1ccccc1F	?	3	1	-2	4.3	.	5
Cc1ccc(CS(=O)(=O)c2nc3c(c(N(C)C)n2)CCCC3)cc1	4135	10	5	-22	3.2	4	1
COc1ccc(C2c3ccc4ccccc4c3Oc3ncn(CCO)c(=N)c32)cc1 (stereo not given)	4260	8	15	0	-6.2	8	7
COc1ccc(N2CCN(C(C)C(=O)N3CC(C)OC(C)C3)CC2)cc1 (stereo not given)	3291	11	2	-7	7.1	.	3
CNC(=O)c1cc2cc(OC)ccc2n1CCN(Cc1ccccc1)Cc1ccccc1	2625	.	.	-55	0.9	4	3
COc1ccc(CCN2C(=O)N[C@@H](CCC(=O)O)C2=O)cc1	3752	-13	-5	-20	1.9	-1	3
COc1ccc(CNC(=O)CN(Cc2ccc(Cl)cc2)C(=O)c2csnn2)cc1	6271	0	-1	-23	2.8	-7	7
Cc1cc(C)cc(NC(=O)CN2CCC(NC(=O)Cc3ccccc3)CC2)c1	10932	0	-2	8	-0.9	5	1
O=c1c(-c2ccc(O)cc2)coc2cc(OC3OC(CO)C(O)C(O)C3O)ccc12 (stereo not given)	3755	17	11	-42	3.3	-4	0
CCc1ccc(NC(=O)N(CCN2CCOCC2)C2CCN(C(C)=O)CC2)cc1	3433	0	4	-8	4.9	8	6
CCOc1cccc(-c2nnc(SCC(=O)Nc3ccc(OC)c(OC)c3)n2N)c1	4218	0	6	-24	2.4	-3	5
COc1ccc(C=NNC(=O)c2cccc([N+](=O)[O-])c2)cc1OC(=O)c1ccc(C)cc1	.	14	8	.	5.0	.	8
Cc1cc(/N=C/N(C)C)on1	7193	.	.	-2	.	-12	.
C[C@H](NC(=O)c1ccc(C(C)(C)C)cc1)C(=O)N1CCN(C/C=C/c2ccccc2)CC1	3614	-3	-1	-17	4.4	.	0
FC(F)(F)c1cc(Oc2ccccc2)ncc1-c1nnc(-c2ccccc2Cl)o1	4582	10	1	-15	-3.4	7	37
CN(C)C(/C=C/Nc1ccc(F)cc1F)=C(C#N)C#N	9566	4	2	-36	4.8	-3	3
COCCOC(=O)C1=C(C)N=c2s/c(=C\c3cccs3)c(=O)n2C1c1cccs1 (stereo not given)	3283	.	.	-18	.	0	.
CC(=O)NCCn1ccc2ccccc21	2365	.	.	-4	3.8	-3	3
COc1ccc(-c2nc(-c3ccccc3)c(-c3cc([N+](=O)[O-])ccc3C)[nH]2)cc1O	3066	24	-14	4	41	-1	44
O=C(Nc1ccccc1C(=O)NCc1cccnc1)c1ccc(Cl)cc1Cl	2374	3	0	7	1.2	-23	7
C=CCNC(=S)Nc1ccc(C)c(S(=O)(=O)N2CCCCC2)c1	4894	13	0	-23	15	-3	-63
CC1=C(C(=O)N2CCCCC2)C2(CCC(C)CC2)OC1=O (stereo not given)	6437	8	7	-21	-0.5	-4	7
COCC(C)NC(=O)Cc1ccc(F)cc1 (stereo not given)	2539	4	1	-27	2.5	-2	3
CN(C)CCCNC(=O)CCc1ncc(C(F)(F)F)cc1Cl	2026	6	-9	-9	3.3	-5	11
O=C(Nc1nnc(-c2ccc(F)cc2)o1)c1ccc(S(=O)(=O)N2CCOCC2)cc1	4224	-15	4	11	19	17	9
Cc1ccc(S(=O)(=O)n2c([N+](=O)[O-])cnc2C)cc1C	3794	.	.	-17	.	-2	.
CCN(CC(=O)NCc1ccc(F)cc1)C(=O)Cc1c(F)cccc1Cl	3637	0	-2	-23	3.5	-5	7
COc1ccc(NC(=O)C(C)N(C)Cc2ccc3ccccc3c2)cc1 (stereo not given)	2984	1	-4	-15	3.2	0	6
O=C(CCNC(=O)c1ccc(Br)cc1)NNC(=O)COc1ccccc1F	3685	14	13	-18	-1.0	.	-4
CCOc1ccc2nc(NC(=O)COC)sc2c1	9577	-104	-30	-77	4.1	-13	5
CC(C)c1c(C(=O)N/N=C/c2ccccc2C(=O)O)nnn1-c1nonc1N	5797	.	.	-4	.	16	.
COc1ccc(/C(C)=N/NC(=O)c2nnn(-c3nonc3N)c2-c2cccs2)cc1	6374	.	.	1	.	-10	.
O=C(O)COc1ccc(Br)cc1/C=N\Nc1ccccn1	4076	.	.	-15	.	5	.
O=c1cc(CSc2ccc(Cl)cc2)nc(-c2ccccc2)[nH]1	3947	-1	14	-6	12	0	-5
CC(=O)c1ccc(NS(=O)(=O)c2ccc(N)cc2)cc1	2094	-10	-2	-16	3.0	4	29
O=C(Nc1nnc(C2CC2)s1)c1cc(S(=O)(=O)N2CCCCC2)ccc1N1CCOCC1	4295	6	-1	-5	4.8	1	10
CC1CN(Cc2c(O)ccc3c(=O)c(-c4ccccc4)coc23)CC(C)O1 (stereo not given)	3616	4	16	-17	4.5	1	0
CCn1c(SCc2nnc(-c3ccccc3)o2)nnc1-c1ccc(S(=O)(=O)N2CCCC2)cc1	23063*	1	1	-25	9.2	-1	-7
FC(F)(F)c1ccc(Oc2ccc(Cl)cc2Br)nc1	2582	3	-4	-21	2.4	1	7
C=CCNc1sc(C(=O)c2ccc(Br)s2)c(N)c1C#N	.	-10	-2	-19	-5.1	-5	0
Cc1ccc(C2NC(c3ccc(C)cc3)C(C)C(=NO)C2C)cc1 (stereo not given)	8306	-2	-1	-15	-8.4	4	51
Cc1cccc(NC(=O)c2nc[nH]c2C(=O)NC(C)C(=O)OC(C)(C)C)c1 (stereo not given)	.	-1	1	.	1.3	.	-1
